# GALR2 agonist – GALR2 receptor agonists, primary screen, cell-based | 140,000 compounds, 0.48% hits | GALR2-expressing cells, agonist activation read-out | activation, %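 (tested at 5 µM)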 | Galanin receptor type 2 (Homo sapiens), O43603 | AID 803, 2007;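 active = above mean plus 3 SD of all compounds, about 5% in these data, not always enough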;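 note: 0% = vehicle buffer wells and 100% = reference agonist at full effect; tested in CHO reporter cells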
# Target sequence (O43603 whole entry, looked up): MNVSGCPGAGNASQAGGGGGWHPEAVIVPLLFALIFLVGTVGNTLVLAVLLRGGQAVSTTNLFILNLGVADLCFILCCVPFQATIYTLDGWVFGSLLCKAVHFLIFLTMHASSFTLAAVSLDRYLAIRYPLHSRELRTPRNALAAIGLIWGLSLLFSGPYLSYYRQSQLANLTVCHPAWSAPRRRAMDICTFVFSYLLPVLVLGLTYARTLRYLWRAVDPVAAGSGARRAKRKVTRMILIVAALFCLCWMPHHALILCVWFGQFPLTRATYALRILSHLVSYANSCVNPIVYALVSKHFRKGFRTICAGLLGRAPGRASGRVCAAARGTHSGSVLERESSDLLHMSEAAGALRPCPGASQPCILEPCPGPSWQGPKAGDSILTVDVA
# PKD1 kinase inh – inhibitors of human PKD1 kinase, biochemical, fluorescence polarization | Serine/threonine-protein kinase D1 (Homo sapiens), Q15139 | PKD1 kinase fluorescence polarization assay | inhibition, %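 (about 10 µM by stock and volumes)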 | 200,000 compounds, 0.056% hits;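 active = inhibition of 50% or more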;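 note: controls were vehicle for no effect and a reference inhibitor for full effect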
# HSV augment – enhancers of HSV replication in host cells, fold increase, host cell viability; maximum fold increase; AID 1956, 2009; 220,000 compounds, 0.005% hits; HSV replication augmentation in cells;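 active = peak rise of 1.5-fold or more in the series; inconclusive = self-fluorescent or not available for retest; tested in PC3 cells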;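 note: first round at 10 µM; read as green reporter fluorescence; hits show the peak of a series up to 25 µM; 1 = signal of infected wells without compound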
# RGS16-Gao – modulators of RGS16 binding to Galphao, primary screen, biochemical, human proteins, multiplexed bead flow cytometry | bead-based flow cytometry RGS16-Galphao binding, fluorescence; actives lie on both sides | Regulator of G-protein signaling 16 (Homo sapiens) + Guanine nucleotide-binding protein … | AID 1441, 2008 | 220,000 compounds, 0.38% hits | binding response (% of control), % at 10 µM;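 active = below 25% or above 175%, edge rows of some plates excepted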;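 note: Galphao activated by GDP with aluminum fluoride before binding; 100% = wells without compound and 0% = beads without RGS; some results beyond the cut were filed as inactive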
# Target sequence (O15492 whole entry, looked up): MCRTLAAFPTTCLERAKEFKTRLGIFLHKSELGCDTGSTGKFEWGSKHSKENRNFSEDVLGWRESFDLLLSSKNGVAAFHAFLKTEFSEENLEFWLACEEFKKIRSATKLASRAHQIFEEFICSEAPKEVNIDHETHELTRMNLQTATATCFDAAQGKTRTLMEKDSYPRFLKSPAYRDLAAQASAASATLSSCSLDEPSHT
# Target sequence (P09471 whole entry, looked up): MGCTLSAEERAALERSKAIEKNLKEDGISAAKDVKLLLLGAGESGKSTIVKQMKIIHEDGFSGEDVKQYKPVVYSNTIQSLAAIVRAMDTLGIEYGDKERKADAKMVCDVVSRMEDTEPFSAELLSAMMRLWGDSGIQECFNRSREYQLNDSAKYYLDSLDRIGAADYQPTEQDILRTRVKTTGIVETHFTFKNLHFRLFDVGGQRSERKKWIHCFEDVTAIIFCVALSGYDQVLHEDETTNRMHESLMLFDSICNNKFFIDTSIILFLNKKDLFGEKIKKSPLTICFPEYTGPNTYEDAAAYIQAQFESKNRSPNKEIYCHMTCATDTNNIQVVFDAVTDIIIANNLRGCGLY
# INS promoter inh – inhibitors of insulin promoter-driven GFP, primary screen, imaging, TRM-6 cells (human fetal islet line), eGFP reporter, cell count. reporter expression induced with tamoxifen. inhibition, % at 2 µM. 130,000 compounds, 0.9% hits;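 active = inhibition above the mean plus 3 SD, with well images judged a real hit on visual review, cut at about 60% in these data, passing the limit was not always enough; inconclusive = inhibition over the cutoff but images rejected on review; inactive = inhibition not above the cutoff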
# INS promoter inh cell count – recorded beside INS promoter inh, whose call it bears; normalized cell count, %; measured here: cell count, toxicity; reference of the scale not given here;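 cells exposed to compound for 48 h; stained nuclei by imaging scaled within each plate; lower means fewer cells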
# HSV augment primary fold – also measured in HSV augment; calls as there; fold increase; compound at 10 µM; measured here: primary screen fold increase 10 uM; tested in PC3 cells;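 GFP signal in the first replicate; 1 = infected wells without compound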
# * = called active by the depositor; i = inactive; ? = inconclusive; . = not tested or not shown.
SMILES,GALR2 agonist,PKD1 kinase inh,HSV augment,HSV augment primary fold,RGS16-Gao,INS promoter inh,INS promoter inh cell count
Cc1ccc(CNC(=O)C2CCCCC2C(=O)O)cc1 (centres undefined),-1.2,-3.8,i,0.92,96.1,3.0,68.7
Cc1ncn2cc(-c3ccc(Cl)cc3Cl)[nH]c(=O)c12,.,.,i,1,95.0,.,.
O=C(c1ccc(CS(=O)(=O)c2ccc(Br)cc2)o1)N1CCN(C2CCCCC2)CC1,-2.9,3.4,.,.,102.6,.,.
COc1cc(OC)c(OC)cc1/C=C1\CCC(C2CCCC2)C1=O (centres undefined),.,-4.5,i,0.93,99.6,.,.
COc1ccc(-n2c(NCCN(C)C)nc3sc4c(c3c2=O)CCCCC4)cc1,-0.1,-4.0,i,0.85,99.2,14.8,80.6
COC(OC)c1ccnc(-c2ccc(OC(=O)c3ccccc3)cc2)n1,.,-7.5,i,0.95,89.3,.,.
O=C(CSCc1cccc(Br)c1)N/N=C/c1ccc2c(c1)OCO2,-1.4,-6.9,i,0.92,93.4,20.6,69.4
O=C(O)c1cc(-c2ccccc2Cl)n[nH]1,-0.1,2.9,i,1.01,98.0,3.2,133.0
Cc1cc(N/C(=N/S(=O)(=O)c2ccc(F)cc2)c2ccccc2)n(-c2ccccc2)n1,.,-2.3,i,0.86,100.6,0.0,129.1
COc1ccc(CCC(C)Nc2cccc(F)c2)cc1 (centres undefined),0.5,4.9,i,1.06,93.3,63.3,72.3
CNC(=S)NN(C)c1nc(C)cc(C)n1,-0.6,-11.4,i,0.89,105.9,-37.5,87.5
O=C(O)C1Cc2ccccc2CN1S(=O)(=O)c1ccccc1 (centres undefined),.,.,i,0.96,106.2,.,.
Cc1ccc(S(=O)(=O)N2CCN(C(=O)CN3CCCC3)C2)cc1,-1.7,9.1,i,0.97,101.7,-40.0,157.6
Cn1cc(C(=O)N/N=C/c2c(O)ccc3ccccc23)ccc1=O,.,0.5,i,0.68,100.5,.,.
Nc1nc(NC(=O)c2ccc(Cl)cc2)nn1-c1ccccc1,-2.5,-6.8,i,0.99,103.2,-5.1,95.9
OC1(c2ccc3ccccc3c2)CCN(Cc2ccccc2)C1 (centres undefined),-1.2,0.5,i,0.67,104.3,-53.1,118.3
O=C(CSc1nc2ccccc2c(=O)[nH]1)N1CCN(S(=O)(=O)c2ccccc2)CC1,-2.3,-0.4,i,0.97,114.5,2.3,90.4
Cc1ccc(NC(=O)COC(=O)C2CC(=O)N(Cc3ccccc3)C2)cc1F (centres undefined),.,-3.8,i,0.91,103.3,50.0,116.0
O=C(NCCN1CCCC1)c1ccc2c(c1)N(Cc1ccc(F)cc1)C(=O)c1ccccc1S2=O (centres undefined),-1.7,-10.8,i,0.84,92.9,.,.
C=C(C)c1cccc(C(C)(C)NC(=O)N2CCOCC2)c1,-1.2,-0.5,i,0.85,100.1,20.7,71.4
CCC(C)(C)n1nnnc1C(c1ccc(C)cc1)N(Cc1ccco1)Cc1cccs1 (centres undefined),-0.9,-6.8,i,1.11,104.4,3.6,79.7
Cc1ccc(C(=O)NC(=S)NCc2cccnc2)cc1C,.,-3.9,i,0.92,115.3,-18.2,70.7
O=C(c1ccc2c(c1)OCCO2)C1CCN(S(=O)(=O)c2ccc(F)cc2)CC1,0.7,-3.3,i,0.9,96.7,18.2,132.1
COc1ccc2nc(NC(=O)C3CCCN(S(=O)(=O)c4cccc5nonc45)C3)sc2c1 (centres undefined),0.2,2.4,i,0.89,99.6,-40.5,98.7
Nc1nc(NCc2ccco2)nc(Nc2ccccc2)c1[N+](=O)[O-],.,.,i,1.03,96.0,.,.
COC(=O)c1ccc(C(=O)OC)c(NS(C)(=O)=O)c1,-0.3,-10.3,i,1.11,103.2,-90.7,90.1
O=c1cc(N2CCN(c3ccccc3)CC2)[nH]c(=O)n1C1CCCCC1,-3.8,-10.8,i,0.77,97.2,42.9,61.9
COc1ccc(C(=O)Nc2nnc(-c3cccs3)s2)cc1,-1.6,0.4,i,0.84,101.4,2.7,140.2
O=C(Cn1cccc1C(=O)c1ccccc1)NCc1cccc(Cl)c1,.,-4.8,i,0.89,99.0,-386.7,91.6
COc1ccc(N(CC(=O)NCc2ccco2)S(=O)(=O)c2ccc(OC)c(OC)c2)cc1,-0.9,-2.0,i,1.04,69.2,.,.

# For convenience, some entries already given:
SMILES,GALR2 agonist,PKD1 kinase inh,HSV augment,HSV augment primary fold,RGS16-Gao,INS promoter inh,INS promoter inh cell count
O=C(CSc1nc2ccccc2c(=O)[nH]1)N1CCN(S(=O)(=O)c2ccccc2)CC1,-2.3,-0.4,i,0.97,114.5,2.3,90.4
Cc1ccc(NC(=O)COC(=O)C2CC(=O)N(Cc3ccccc3)C2)cc1F (centres undefined),.,-3.8,i,0.91,103.3,50.0,116.0
O=C(NCCN1CCCC1)c1ccc2c(c1)N(Cc1ccc(F)cc1)C(=O)c1ccccc1S2=O (centres undefined),-1.7,-10.8,i,0.84,92.9,.,.
C=C(C)c1cccc(C(C)(C)NC(=O)N2CCOCC2)c1,-1.2,-0.5,i,0.85,100.1,20.7,71.4
CCC(C)(C)n1nnnc1C(c1ccc(C)cc1)N(Cc1ccco1)Cc1cccs1 (centres undefined),-0.9,-6.8,i,1.11,104.4,3.6,79.7
Cc1ccc(C(=O)NC(=S)NCc2cccnc2)cc1C,.,-3.9,i,0.92,115.3,-18.2,70.7
O=C(c1ccc2c(c1)OCCO2)C1CCN(S(=O)(=O)c2ccc(F)cc2)CC1,0.7,-3.3,i,0.9,96.7,18.2,132.1
COc1ccc2nc(NC(=O)C3CCCN(S(=O)(=O)c4cccc5nonc45)C3)sc2c1 (centres undefined),0.2,2.4,i,0.89,99.6,-40.5,98.7
Nc1nc(NCc2ccco2)nc(Nc2ccccc2)c1[N+](=O)[O-],.,.,i,1.03,96.0,.,.
COC(=O)c1ccc(C(=O)OC)c(NS(C)(=O)=O)c1,-0.3,-10.3,i,1.11,103.2,-90.7,90.1
O=c1cc(N2CCN(c3ccccc3)CC2)[nH]c(=O)n1C1CCCCC1,-3.8,-10.8,i,0.77,97.2,42.9,61.9
COc1ccc(C(=O)Nc2nnc(-c3cccs3)s2)cc1,-1.6,0.4,i,0.84,101.4,2.7,140.2
O=C(Cn1cccc1C(=O)c1ccccc1)NCc1cccc(Cl)c1,.,-4.8,i,0.89,99.0,-386.7,91.6
COc1ccc(N(CC(=O)NCc2ccco2)S(=O)(=O)c2ccc(OC)c(OC)c2)cc1,-0.9,-2.0,i,1.04,69.2,.,.

# More compounds follow:
SMILES,GALR2 agonist,PKD1 kinase inh,HSV augment,HSV augment primary fold,RGS16-Gao,INS promoter inh,INS promoter inh cell count
Cc1ccccc1NS(=O)(=O)c1ccc(C2CNC(=O)C2)cc1 (centres undefined),-0.9,-5.9,i,0.96,85.6,-352.9,98.2
COc1ccc(NC(C)=O)cc1C,.,-3.6,i,0.89,98.4,71.4*,82.2*
CCC(CC)N=C1NS(=O)(=O)c2cc([N+](=O)[O-])ccc21,.,-4.7,i,0.81,98.8,5.9,94.7
COc1cccc(/C=N/NC(=O)c2nc(-c3ccccc3)cc(-c3ccccc3)n2)c1,-0.9,-8.5,i,0.9,92.1,3.3,139.4
COCCCNC(CC(=O)Nc1ccc(OC)cc1OC)C(=O)O (centres undefined),1.6,-15.0,i,0.88,.,-18.4,149.0
O=C(O)c1ccccc1N1C(=O)C2C3c4ccccc4C(Br)(c4ccccc43)C2C1=O (centres undefined),.,-3.3,i,1.02,107.6,-20.0,46.6
Cc1ccc(NC(=O)C2CCN(S(=O)(=O)c3cccs3)CC2)cc1C,-1.9,-3.5,i,0.92,95.4,21.9,168.9
Cc1cccc(NC(=O)CN2C(=O)COc3ccc(Cl)cc32)c1C,-2.2,-9.9,i,0.94,101.3,.,.
Cc1nn(-c2ccccc2)c(C)c1S(=O)(=O)O,.,-10.5,i,1.07,105.1,.,.
CCOc1ccc(C(NC(=O)/C=C/c2ccco2)c2ccc(OC)c(OC)c2)cc1 (centres undefined),-0.9,-4.4,i,1.18,132.2,51.9,82.8
C=CCn1c(O)c(N=NC(=S)Nc2ccc(OC)c(Cl)c2)c2ccccc21,-5.2,-7.5,i,0.93,90.5,-255.6,3.8
COc1cc(OC)cc(-c2nnc(Sc3ccc(C=O)cc3[N+](=O)[O-])o2)c1,-0.9,-4.3,i,1.03,103.0,-13.3,120.4
CCC(CO)NCc1ccc(OC2CCCC2)cc1 (centres undefined),-0.4,-3.6,i,0.79,100.0,-19.4,273.2
CCOC(=O)CSc1nc(C2CC2)cc(-c2ccc(Cl)cc2)c1C#N,0.3,1.3,i,1.2,93.1,.,.
COc1ccc(C)cc1S(=O)(=O)Nc1cccnc1,-1.0,-0.3,i,0.83,100.4,21.9,128.4
O=c1c2ccccc2c(/C=N/NS(=O)(=O)c2ccccc2)c(O)n1-c1ccccn1,.,-3.8,?,.,116.0,6.7,85.2
Cc1ccnc(NS(=O)(=O)c2ccc(NC(=O)c3ccc(S(=O)(=O)N4CC(C)OC(C)C4)cc3)cc2)n1 (centres undefined),-0.3,-5.9,i,0.9,105.9,-43.8,164.4
CCSC1=N/C(=C\c2ccc(C(=O)O)cc2)C(=O)S1,0.8,-3.9,i,0.96,113.4,.,.
OC(CN1C2=NCCN2c2ccccc21)c1ccc2c(c1)OCO2 (centres undefined),-1.3,6.3,i,0.95,109.8,.,.
CN(C(=O)Nc1ccccc1)C1CCCCC1,.,.,i,0.94,98.5,.,.
CC(C)(C)[C@@H]1C=C(C(=O)NC2CC2)O[C@H](OCc2ccc(CO)cc2)C1,.,2.2,i,0.79,97.8,.,.
CN(C)S(=O)(=O)c1cccc(-c2nn(-c3ccccc3)cc2/C=C2\SC(=S)NC2=O)c1,0.5,-3.7,.,.,49.5,.,.
Cc1cc(C)c2c(CC(=O)Nc3nccs3)coc2c1,-1.4,-17.3,i,1.01,101.3,-6.2,58.3
Nc1cc(N)nc(SCCOc2ccccc2F)n1,0.7,-11.7,i,0.79,104.9,-1.8,94.5
CC1=C(C(=O)OCC2CCCO2)C(c2ccsc2)C2=C(CCCC2=O)N1 (centres undefined),.,0.9,i,0.97,102.4,.,.
CCc1nc(Cl)c(C#N)c2c1CCCC2,-0.7,-6.1,i,0.96,104.1,37.0,106.5
O=C(O)c1ccc(Cl)c(S(=O)(=O)Nc2ccc3cn[nH]c3c2)c1,.,-2.6,i,1.05,98.1,.,.
Cc1cc(C)cc(NC(=O)Cc2ccc(-n3cccc3)cc2)c1,-0.2,6.6,i,1.09,87.6,26.7,77.8
Cc1oc(-c2cccs2)nc1CN1CCC(CO)(CCOc2ccccc2)CC1,.,4.1,i,0.91,99.8,.,.
CC1CN(c2ccc(Cl)cc2[N+](=O)[O-])CCN1S(C)(=O)=O (centres undefined),.,-5.2,i,0.93,102.0,20.0,130.7
O=C(COC(=O)[C@H](Cc1ccccc1)NC(=O)c1cccs1)Nc1ccccc1C(F)(F)F,-0.3,-2.6,i,1.22,101.1,.,.
CCOC(=O)c1cnc2c(c(C3CC3)nn2C)c1N1CCOCC1,.,.,i,0.94,107.0,.,.
COP(=O)(OC)c1nc(-c2ccccc2)oc1N1CCOCC1,0.4,-1.8,i,1.07,109.4,-5.6,88.6
CCOC(=O)C(=O)N(Nc1ccc(C)cc1)c1ccc(C)cc1,.,.,i,1,108.4,.,.
Cc1nc2nc(CC(=O)O)[nH]n2c(=O)c1[N+](=O)[O-],.,.,i,0.94,99.6,.,.
O=C(CNC(=O)c1ccccc1F)N/N=C/c1cc(Br)ccc1OC(=O)/C=C/c1ccco1,0.2,-15.5,i,0.7,113.8,-14.8,81.6
CC(/C=N/NC(=O)c1ccncc1)=C\c1ccccc1,-3.8,2.7,i,0.91,101.0,.,.
CCc1nnc(N/N=C/c2ccccc2Cl)n1N,-1.4,-12.1,i,0.82,98.8,-16.7,72.4
O=C1NC(Cc2c[nH]c3ccccc23)C(=O)N1CCOc1ccccc1 (centres undefined),-1.8,-0.6,i,0.9,98.8,-12.5,161.0
O=S(=O)(Nc1nc2ccccc2nc1-[n+]1cccc(N=C([O-])c2ccc(Cl)cc2)c1)c1ccccc1,.,.,i,0.86,93.1,.,.
CC1(C)Cc2c(sc(N)c2C#N)C(C)(C)N1,.,-0.8,i,1.03,104.0,.,.
O=C(O)c1cc([N+](=O)[O-])c(N2CCCC2)c([N+](=O)[O-])c1,-1.2,-0.8,i,0.8,98.9,21.9,74.3

# Assay outcomes (PubChem)
